Source: PubChem
Menin-MLL FL inh: qHTS Assay for Inhibitors Targeting the Menin-MLL Interaction in MLL Related Leukemias: Competition With Fluorescein Labeled MLL-derived Peptide | Fluorescence polarization, fluorescein-MLL peptide displacement from menin | AID 1766, 2009 | FP activity change, % at 61.4 µM | 290,000 tested, under 10 active; inconclusive = falling polarisation curve, or a change in total fluorescence; inactive = total fluorescence flat and polarisation flat or rising; no compound was filed as active; the % refers to the polarisation; negative = inhibition;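 also: % of control where 0% means no effect; inhibitors lower the polarisation; unlabelled MLL peptide was the positive control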
gsp ag: qHTS for Agonist of gsp, the Etiologic Mutation Responsible for Fibrous Dysplasia/McCune-Albright Syndrome: qHTS | gsp mutant cells, cAMP HTRF, 30 min; control for the full effect not named in the record | Potency, µM (series often up to 76.9 µM), for inactives: top-dose activation (cAMP increase), actives largely listed as activators | 340,000 tested, 0.13% active | AID 624287, 2012; active = well fitted activation curve with a large enough effect; inconclusive = small, poorly fitted or top-dose-only effect, or another doubt; inactive = no such curve, though single readings can be large or run the other way; cell line not stated here;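 also: phosphodiesterase inhibitor Ro 20-1724 added with compounds to block cAMP breakdown; potency is read from the fitted curve at half-maximal effect; nearly all actives have a fitted effect of over 60% in size; about a fifth of the inactives were tested at one dose only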
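Cells stably selected in G418 were plated at 2000/well, grown 16-24 hr, then given compounds in DMSO with the PDE inhibitor […] (300 uM solution added) for 30 min at 37C; cAMP was read by HTRF.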
PINK1 modulator: A Quantitative High throughput Screen to Identify Chemical Modulators of PINK1 Expression | AID 624263, 2012 | 410,000 tested, 0.2% active | PINK1 immunofluorescence, high-content cytometry, 24 h | Potency, µM (doses to about 76.6 µM), inactives show top-dose activation (PINK1 increase), hits mostly activators; active = well fitted activation curve with a large enough effect; inconclusive = small, poorly fitted or top-dose-only effect; inactive = flat fitted curve, though single readings scatter; cell line not stated here;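 also: potency is read from the fitted curve at half-maximal effect; % of control where 0% means no effect; nearly all actives have a fitted effect of over 65% in size; a mitochondrial uncoupler was the plate control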
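PINK1 protein level read as immunofluorescence by microplate cytometer in a fixed, stained stable cell line after 24 h exposure to five compound concentrations, with CCCP as control.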
ClpP mod: qHTS Assay for Activators of ClpP. purified B. subtilis ClpP, FRET peptide cleavage, 20 min. ATP-dependent Clp protease proteolytic subunit (Bacillus subtilis (strain 168)), P80244. AID 651965, 2013. 340,000 tested, 1.9% active. Potency, µM (highest dose often 57.5 µM), without a hit: at the top dose activity change, negative = active; active = well fitted falling curve with a large enough effect; inconclusive = small, poorly fitted or top-dose-only effect; inactive = no such curve, though single readings can be large or run the other way; also: potency is read from the fitted curve at half-maximal effect; the source files actives as falling curves though it sought activators and does not explain the sign; nearly all actives have a fitted effect of over 65% in size; many hits overshoot -100%
Target sequence (P80244 whole entry, looked up): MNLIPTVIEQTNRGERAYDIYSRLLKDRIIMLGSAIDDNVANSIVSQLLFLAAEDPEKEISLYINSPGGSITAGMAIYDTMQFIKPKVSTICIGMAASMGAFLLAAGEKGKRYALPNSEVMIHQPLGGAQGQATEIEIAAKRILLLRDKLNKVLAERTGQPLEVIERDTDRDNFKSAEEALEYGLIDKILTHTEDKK
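Purified B. subtilis ClpP, 10 microg/mL final in Tris/HCl pH8 with KCl, BSA, glycerol and Tween-20, cleaved an Abz/nitrotyrosine-quenched decapeptide. Fluorescence (ex 320, em 430) was read at 0 and 20 min at room temperature. Delta was normalized to 5.8 microM ADEP and DMSO/no-enzyme controls.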
gsp antagonist: qHTS for Antagonists of gsp, the Etiologic Mutation Responsible for Fibrous Dysplasia/McCune-Albright Syndrome: qHTS; Potency, µM (series often up to 76.9 µM), without a hit: at the top dose activity change, negative = inhibition, hits mostly inhibitors; 340,000 tested, 0.4% active; AID 624288, 2012; gsp-mutant cells, cAMP HTRF, 30 min; control for the full effect not named in the record; active = falling curve of any shape with a large fitted effect; inconclusive = falling curve, mostly with a smaller effect; inactive = flat or rising curve; cell line not stated here;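 also: intracellular cAMP measured with PDE inhibitor Ro 20-1724 present during compound exposure; potency is read from the fitted curve at half-maximal effect; % is scaled to controls: 0 for no effect and ±100 for the full control effect; nearly all actives have a fitted effect of over 65% in size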
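Cells in G418 medium, seeded 16-24 h, 37C; buffer exchange to DPBS + 1 mM CaCl2, 0.5 mM MgCl2, 0.05% BSA; cpds in DMSO + […] (300 uM stock), 30 min 37C; HTRF cAMP detection.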
D2 agonist: Beta-Arrestin HTS for Positive Allosteric Modulators of the Human D2 Dopamine Receptor: Agonists; AID 624465, 2012; 360,000 tested, 0.084% active; DiscoveRx PathHunter D2 beta-arrestin, luminescence, 90 min; 100% = 57 uM dopamine signal; activation, % (test concentration not listed); D(2) dopamine receptor (Homo sapiens), P14416; in the data active = activation above about 40%; inconclusive = about 15% to 40%; inactive = below about 15%; also: compound concentration not given in the record; the text of the record calls up to 30% inactive
Target sequence (P14416 whole entry, looked up): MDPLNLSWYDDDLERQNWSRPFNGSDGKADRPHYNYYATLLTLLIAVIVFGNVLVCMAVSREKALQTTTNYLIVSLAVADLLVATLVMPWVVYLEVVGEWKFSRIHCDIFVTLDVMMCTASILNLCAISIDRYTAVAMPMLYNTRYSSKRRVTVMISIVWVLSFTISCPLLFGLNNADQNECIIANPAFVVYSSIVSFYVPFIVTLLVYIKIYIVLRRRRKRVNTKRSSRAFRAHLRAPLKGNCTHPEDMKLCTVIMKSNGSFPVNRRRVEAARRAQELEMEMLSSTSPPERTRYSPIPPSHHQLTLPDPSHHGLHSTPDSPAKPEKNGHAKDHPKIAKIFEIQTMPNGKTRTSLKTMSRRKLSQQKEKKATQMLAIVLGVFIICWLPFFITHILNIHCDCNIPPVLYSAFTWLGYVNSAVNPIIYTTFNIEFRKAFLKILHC
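DiscoveRx PathHunter D2 beta-arrestin cells (2,100/well) attached overnight, then compound-stimulated 90 min at 37 C in HBSS/10 mM HEPES/0.1% Tween-20 buffer; beta-galactosidase complementation read by luminescence after 1 h at ambient temperature. Dopamine 57 uM final (EC100) as control.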
Sfp PPTase inh: qHTS Assay for Inhibitors of Bacillus subtilis Sfp phosphopantetheinyl transferase (PPTase); Biochemical Sfp PPTase activity, qHTS; 4'-phosphopantetheinyl transferase ffp (Bacillus subtilis), Q9F4F7; 310,000 tested, 3.5% active; Potency, µM, for the others: max response, negative = inhibition, actives largely listed as inhibitors; AID 1490, 2009; active = well fitted inhibition curve with a large enough effect; inconclusive = small, poorly fitted or top-dose-only effect, or another doubt; inactive = no such curve, though single readings can be large or run the other way;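 also: the enzyme is Sfp with the accession as filed and its product quenches rhodamine fluorescence; potency is read from the fitted curve at half-maximal effect; 0% = enzyme reaction without inhibitor and -100% = no enzyme wells; top concentration of the series not given in the record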
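Compounds were incubated with enzyme (final 15 nM) for 15 min at room temperature before substrate addition started the reaction. Fluorescence at 525 nm excitation, 598 nm emission was recorded immediately and after 30 minutes.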
Starred values were filed as active, the others as inactive; ? = inconclusive; nt = no result given; & = joins results of further samples; [ ] = dose if it differs, or a comment. These rows are one share of the data (hit frequency here may not be typical).

Start of the listing, in advance (two entries):
Every second line gives: Menin-MLL FL inh	gsp ag	PINK1 modulator	ClpP mod	gsp antagonist	D2 agonist	Sfp PPTase inh
CCCCn1c(O)c(/C=C2\C=Nc3ccccc32)c(=O)[nH]c1=O
→ ?	?	1.2%	nt	-8%	-1.4	-8%
CNCC(O)c1cccc(OC(=O)c2ccccc2C)c1 (configuration not stated)
→ 1.8	27%	0.1%	-2.0%	18%	-2.1	7%

The whole of this part (from the top)
Every second line gives: Menin-MLL FL inh	gsp ag	PINK1 modulator	ClpP mod	gsp antagonist	D2 agonist	Sfp PPTase inh
CCCCn1c(O)c(/C=C2\C=Nc3ccccc32)c(=O)[nH]c1=O
→ ?	?	1.2%	nt	-8%	-1.4	-8%
CNCC(O)c1cccc(OC(=O)c2ccccc2C)c1 (configuration not stated)
→ 1.8	27%	0.1%	-2.0%	18%	-2.1	7%
COc1ccccc1C(=O)C1CCCN(Cc2cnc(C)s2)C1 (configuration not stated)
→ -1.3	-8%	-0.1%	-3.8%	-1%	-1.9	13%
CCN(CC)C(=O)Cn1cc(/C=C2\C(=O)NC(=O)N(c3ccccc3F)C2=O)c2ccccc21
→ -1.7	11%[15.4 µM]	-3.9%	-5.3%	-30%	-3.5	?
CCOC(=O)C1CCN(Cc2ccc(Cl)nc2)CC1
→ -1.9	10%	2.6%	nt	9%	3.6	12%
Cc1ccc(S(=O)(=O)N(C)C[C@@H]2Oc3ncc(Br)cc3C(=O)N([C@H](C)CO)C[C@@H]2C)cc1
→ nt	-58%[inhibitor]	-0.8%	-3.4%	nt	0.7	nt
C[C@H]1CCC/C=C/C2C[C@H](O)CC2[C@H](O)/C=C/C(=O)O1 (some centres not stated)
→ 2.5	nt	-1.2%	-1.8%	-11%	0.1	23%
C[C@]12CCC3C(C(=O)C[C@H]4C[C@@H](O)CC[C@]34C)C1CCC2=O (some centres not stated)
→ nt	4%	1.6%	nt	5%	-3.9	nt
CN1CCCC2(CCN(C(=O)c3ccco3)CC2)C1
→ -6.6	nt	0.9%	nt	nt	nt	11%
O=c1[nH]c(=S)n(C2CC2)c(O)c1/C=N/Nc1ccccc1
→ 4.4	8%[15.4 µM]	-1.0%	0.5%	-19%	-7.2	50µM*
CC12Cc3cnoc3C=C1CCC1C2CCC2(C)C1CCC2(C)O (configuration not stated)
→ nt	3%	1.9%	-3.3%	?	4.1	nt
CN1C2CCC1CC(OC(=O)c1cc(Cl)cc(Cl)c1)C2 (configuration not stated)
→ 1.3&-4.7&-2.3	5%	5.9%	1.0%	19%	-3.6	17%&1%
COc1ccc2c(C)c(CCC(=O)N3C[C@H]4C[C@@H](C3)c3cccc(=O)n3C4)c(=O)oc2c1
→ 0.7	nt	4.7%	4.8%	-5%	-1.0	17%
Nc1nnc(P(c2ccccc2)c2ccccc2)s1
→ 2.6	9%	-0.9%	-5.9%	4%	-6.6	13%
Cc1ccc(N=Cc2c(O)n(C)c(=O)n(C)c2=O)cc1
→ -0.9	-12%	1.0%	?	1%	0.5	20%
CCCCn1c(-c2nonc2NC(=O)c2ccccc2Cl)nc2ccccc21
→ nt	?	0.8%	?	11%	-2.6	nt
O=S(=O)(NC1CCCC1)OCC(Cl)(Cl)Cl
→ 1.7	nt	2.2%	-0.1%	10%	-6.1	10%
CN(C)CC1CCCCC1OC(=O)Cc1ccc(Cl)c([N+](=O)[O-])c1 (configuration not stated)
→ 3.1	-16%	0.7%	nt	-9%	3.8	-6%
CN(C)C(=O)O/N=C(\N)COc1ccc(C(C)(C)C)cc1
→ 3.2	11%	-1.6%	1.6%	5%	nt	12%
CN1C2c3ccccc3C3C4c5ccccc5C(C31)C(C2[N+](=O)[O-])N4C (configuration not stated)
→ 11	?	2.1%	1.2%	6%	-1.3	30%
COc1ccc(-c2nc(NC(=O)Cn3c(=O)oc4ccccc43)sc2C)cc1
→ 4.2	?	3.8%	-0.5%	-25%	-2.9	?
COC(=O)C1=C(c2ccc(F)cc2OCc2ccccc2)C[C@@H]2CC[C@H]1N2C(=O)NCc1ccc(N(C)C)cc1
→ nt	nt	0.6%	-3.4%	-11%	1.9	nt
CNC(=S)N1CC2CC(C1)c1cccc(=O)n1C2 (configuration not stated)
→ 0.9	0%	-2.6%	nt	0%	-1.2	9%
CNC(=O)COC(=O)c1ccc(-c2nc3ccccc3s2)s1
→ 0.4	-58%[inhibitor]	0.7%	6.3µM*	6%	-1.2	19%
CC(=O)OC1CCC2(C)C(CC(=O)C3C2CCC2(C)C(OC(C)=O)CCC32)C1 (configuration not stated)
→ nt	24%	-2.8%	-2.0%	1%	0.0	nt
O=c1nc(/C=C/c2ccc(Cl)cc2Cl)cc(C(F)(F)F)[nH]1
→ 7.6	?	3.8%	-6.2%	-5%	1.6	-17%
O=Cc1c(C(=O)O)n(Cc2ccccc2F)c2ccccc12
→ -14	2%	4.0%	nt	-4%	-1.8	7%
CN(C)CCN(CC1CCCN(Cc2ccccc2F)C1)C(=O)Cc1ccccc1F (configuration not stated)
→ -1.7	-10%	0.1%	-1.3%	11%	-0.2	17%
C=CCN1CCC2(C)c3cc(O)ccc3CC1C2C (configuration not stated)
→ 2.1	nt	0.5%	-1.3%	29%	-2.7	-29%
CC(=O)N1N=C2C3CCN(CC3)C2C1c1ccc(Br)cc1 (configuration not stated)
→ 5.3	0%	3.2%	1.1%	7%	-1.7	14%
COC(=O)C(O)(c1ccc(NC(=O)c2cccs2)cc1)C(F)(F)F (configuration not stated)
→ 2.1	-20%	0.9%	0.3%	13%	-1.5	22%
COC(=O)c1[nH]c2ccc(C)cc2c1NC(=O)Oc1ccccc1
→ 0.8	-65%[inhibitor]	-0.3%	35µM*	-3%	-0.3	-2%
Cc1nnc2ccc(-c3cccc(C(F)(F)F)c3)nn12
→ -0.7	nt	-1.2%	4.6%	5%	-2.5	0%
CN1CC(CO)=C[C@H]2c3cccc4[nH]cc(c34)C[C@H]21
→ ?	nt	0.9%	nt	nt	nt	-30%
CNc1ccc2oc(C[C@H]3O[C@@]4(CC[C@H]3C)O[C@H]([C@H](C)C(=O)c3ccc[nH]3)[C@H](C)C[C@H]4C)nc2c1C(=O)O
→ 4.6&2.8	nt	-0.9%	4.6%	?	-11	-14%
O=C(c1cc(Cl)cc(Cl)c1)N1Cc2ccccc2-n2nncc2C1
→ nt	-32%[inhibitor]	0.6%	-0.6%	nt	-5.5	nt
Cc1nc2sc3c(c2c(=O)n1NC(=O)CCl)CCCC3
→ -1.2	?	2.6%	nt	-6%	-2.5	7%
CN1CCN(c2ccc(NC(=O)Oc3ccccc3)cc2)CC1
→ 4.0	9%	0.1%	-5.6%	-27%	-2.6	8%
CCCNC(=O)N1[C@H]2CC[C@@H]1C(C(=O)OC)=C(c1ccc3ccccc3c1)C2
→ nt	-32%	0.4%	-4.4%	-8%	0.1	nt
COc1ccccc1C(=O)Nc1ccc2c(c1)CC1(C(=O)N(C)C(=O)N(C)C1=O)C1CCCN21 (configuration not stated)
→ nt	-3%[15.4 µM]	0.4%	nt	-3%	-1.5	-5%
Cc1c(Br)c(=O)oc2cc(OCC(=O)N3C[C@H]4C[C@@H](C3)c3cccc(=O)n3C4)ccc12
→ -0.9	nt	1.2%	3.8%	10%	-4.3	19%
CC[C@@H](CO)C1CC2NC3CC4(c5ccccc5N(C)[C@@H]24)C(O)C31 (some centres not stated)
→ nt	nt	-1.1%	-4.9%	5%	-3.3	nt
COc1ccc(OC)c(NP(=O)(Oc2ccccc2)Oc2ccccc2)c1
→ 3.8	-2%	3.0%	0.3%	-11%	-3.9	-10%
Cc1cccc2c1=NC(=O)/C(=C/c1c(O)[nH]c(=O)[nH]c1=O)C=2
→ 3.0	-4%	-0.6%	13µM*	4%	-0.7	50µM*
CCOC(=O)Cn1cc(C(=O)c2ccccc2F)c2ccccc21
→ 7.5	-10%	0.5%	0.3%	2%	-3.2	6%
CCOC(=O)c1c(C)n(Cc2ccccc2)c2ccc(O)cc12
→ 0.6	-6%[15.4 µM]	4.5%	nt	-4%	4.6	50µM*
COC(=O)C(O)(c1cn(C)c2ccccc12)C(F)(F)F (configuration not stated)
→ -0.7	16%	4.2%	0.9%	6%	-2.6	23%
Cc1cc(=O)oc2cc(OCC(=O)N3CCN(Cc4ccccc4)CC3)ccc12
→ nt	-2%[15.4 µM]	-0.5%	0.9%	-5%	-1.4	nt
CCC(C)n1c(O)c(/C=N/NC(=O)c2ccncc2)c(=O)[nH]c1=S (configuration not stated)
→ nt	-38%[inhibitor]	3.6%	-8.7%	-2%	-6.2	11%
C[C@]12CC[C@H](O)CC1=CCC1C2CC[C@@]2(C)C1CC[C@@H]2OCc1ccccc1 (some centres not stated)
→ nt	2%[15.4 µM]	4.9%	-1.4%	10%	0.0	nt
N#Cc1cc2c(nc1SCC(=O)Nc1cc(Cl)ccc1Cl)C1CCN2CC1
→ 1.4	0%	12%[38.3 µM]	32%	-16%	-0.8	13%
COC(=O)C1=C(c2ccc(S(C)(=O)=O)cc2)C[C@@H]2CC[C@H]1N2C(=O)N1CCOCC1
→ nt	-4%	1.1%	-0.8%	3%	-3.0	nt
Cc1c(NS(=O)(=O)c2ccccc2)ccc([N+](=O)[O-])c1Cl
→ nt	-20%	16µM*	nt	?	-5.2	nt
